RE007 growth inh – less growth of the S. pombe RE007 Vpr strain; 0.21% of 360,000 active; S. pombe RE007 Vpr strain, BacTiter-Glo ATP luminescence, 24 h; control for the full effect not named in the record; Potency, µM (top dose mostly 92.2 µM), inactives show at the top dose activity change, negative = less growth; active = well fitted falling curve with a large enough effect; inconclusive = small, poorly fitted or top-dose-only effect; inactive = no such curve, though single readings can be large or run the other way;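 also: % is scaled to controls: 0 for no effect and ±100 for the full control effect; nearly all actives have a fitted effect of over 50% in size; the assay follows cell death caused by Vpr and the record does not say whether a fall means rescue or toxicity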
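Fission yeast strain RE007, carrying one chromosomally integrated HIV-1 vpr copy, was seeded at OD 0.01 in PMG+AL medium with 23 nL pinned compound. After 24 h at 30 °C and 99% humidity, viability was read by BacTiter-Glo luminescence.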
MARV entry inh – inhibitors of Marburg virus binding or cell entry; Marburg virus pseudotyped entry inhibition, cell reporter; control for the full effect not named in the record; about a third of the inactives were read at about 46 µM; Potency, µM (doses to about 37.8 µM), without a hit: at the highest dose activity change, negative = inhibition, actives largely listed as inhibitors; 1.8% of 300,000 active; AID 540276; active = well fitted inhibition curve with a large enough effect; inconclusive = small, poorly fitted or top-dose-only effect, or effect the other way; inactive = flat fitted curve, though single readings scatter; tested in HEK293 cells; about a fifth of its hits are not listed in these tables; also: % is scaled to controls: 0 for no effect and ±100 for the full control effect; luciferase read-out
Cruzain inh Det – cruzain (T. cruzi) inhibition with detergent | P25779 | Potency, µM, for inactives: max response, negative = inhibition, hits mostly inhibitors | 0.43% of 200,000 active | purified cruzain, Z-FR-AMC fluorescence, 0.01% Triton;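 also: plate controls were neutral wells for no effect and buffer without enzyme for full effect; nearly all actives have a fitted effect of over 40% in size; top concentration of the series not given in the record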
Target sequence (P25779 123-467 limits assumed): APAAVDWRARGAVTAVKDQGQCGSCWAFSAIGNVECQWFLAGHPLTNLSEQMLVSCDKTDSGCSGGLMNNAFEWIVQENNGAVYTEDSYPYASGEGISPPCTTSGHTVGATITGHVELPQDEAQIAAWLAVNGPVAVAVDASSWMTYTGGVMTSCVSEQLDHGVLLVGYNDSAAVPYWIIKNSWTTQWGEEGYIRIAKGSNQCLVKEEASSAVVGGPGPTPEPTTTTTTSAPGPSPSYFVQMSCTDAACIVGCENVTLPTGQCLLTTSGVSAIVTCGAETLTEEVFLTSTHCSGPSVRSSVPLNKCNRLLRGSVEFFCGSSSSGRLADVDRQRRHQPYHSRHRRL
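Z-FR-AMC hydrolysis (2 uM substrate) by cruzain (1.5 nM) monitored kinetically at ex 360/em 450 nm after 15 min room-temperature compound exposure; 0.01% Triton X-100, pH 5.5, 5 mM DTT.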
SARS PLP yeast – inhibitors of SARS-CoV papain-like protease in yeast; 0.19% of 330,000 active; Potency, µM (series often up to 32.9 µM), for inactives: at the top dose activity, positive = growth rescue; S. cerevisiae expressing SARS-CoV PLpro, growth rescue; control for the full effect not named in the record; AID 485353; active means well fitted rising curve with a large enough effect; inconclusive means small, poorly fitted or top-dose-only effect; inactive means no such curve, though single readings can be large or run the other way; also: 0% is about no effect; nearly all actives have a fitted effect of over 55% in size; growth read by luminescence after 48 h
StopGo reporter – lowers the luciferase signal of an FMDV 2A StopGo reporter | human cells with a luciferase reporter of 2A StopGo recoding; control for the full effect not named in the record | Potency, µM (titrated, usually from 57.9 µM), for inactives: at the highest dose signal change, negative = less light | 1.2% of 410,000 active | AID 1159524; active = well fitted falling curve with a large enough effect; inconclusive = small, poorly fitted or top-dose-only effect; inactive = no such curve, though single readings can be large or run the other way; tested in HEK293T cells; also: % is scaled to controls: 0 for no effect and ±100 for the full control effect; nearly all actives have a fitted effect of over 45% in size; luciferase light after 4 h
LASV entry inh – blocks Lassa virus binding to or entry into cells; Lassa virus pseudotype entry inhibition, cell reporter; control for the full effect not named in the record; 1.2% of 300,000 active; Potency, µM (titrated, usually from 37.9 µM), inactives show at the top dose activity change, negative = inhibition, hits mostly inhibitors; active means well fitted inhibition curve with a large enough effect; inconclusive means small, poorly fitted or top-dose-only effect, or effect the other way; inactive means flat fitted curve, though single readings scatter; tested in HEK293 cells; also: % is scaled to controls: 0 for no effect and ±100 for the full control effect; nearly all actives have a fitted effect of over 50% in size; luciferase read-out
Cruzain noTriton – cruzain (T. cruzi) inhibition without detergent | 2.3% of 200,000 active | purified cruzain, Z-FR-AMC fluorescence, no detergent | Potency, µM, without a hit: max response, negative = inhibition, most hits filed as inhibitors | P25779;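 also: plate controls were enzyme without inhibitor for no effect and buffer without enzyme for full effect; nearly all actives have a fitted effect of over 40% in size; top concentration of the series not given in the record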
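Detergent-free condition (0.00005% Triton X-100) in acetate buffer pH 5.5 with DTT. 1.5 nM enzyme and compound were pre-mixed 15 min, then 2 uM Z-FR-AMC substrate added; reaction progress from fluorescence change between first and third reads (60 s).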
NS1 function inh – inhibitors of influenza NS1 protein function; S. cerevisiae slowed by influenza A NS1, growth recovery by OD600; Potency, µM (top dose mostly 46.1 µM), without a hit: top-dose activity, positive = more growth; 0.4% of 270,000 active; AID 2326; active means well fitted rising curve with a large enough effect; inconclusive means small, poorly fitted or top-dose-only effect; inactive means no such curve, though single readings can be large or run the other way; also: nearly all actives have a fitted effect of over 50% in size
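A cell-based growth assay was used: compounds that relieve NS1-induced slow growth of budding yeast raise OD600. Assay medium was yeast nitrogen base with ammonium sulphate and -URA supplement, pH 6.0, with 2% galactose.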
Active calls of the source: *; u = inconclusive; x = no result given; & = joins results of further samples; [ ] = dose if it differs, or a comment. Unless noted, calls follow the shape of the dose curve; as a rule, active = well fitted curve in the direction sought with a large enough effect; inconclusive = small, poorly fitted or top-dose-only effect, or another doubt; inactive = no such curve, though single readings can be large; an effect the other way counts as inactive or inconclusive. Potency is read from the fitted curve at half-maximal effect.

Start of the data: the first 3 records, to show the layout:
Structure	LASV entry inh	StopGo reporter	MARV entry inh	Cruzain noTriton	SARS PLP yeast	Cruzain inh Det	NS1 function inh	RE007 growth inh
COc1cccc(-c2noc(C(C)n3nc(C)c([N+](=O)[O-])c3C)n2)c1 (stereo unspecified)	u	13%	u	-8%	2%	-5.9%	-3%	-10%
COc1cc2[nH]c(=O)n(CCCCCC(=O)NCCCN3CCCC3=O)c(=O)c2cc1OC	10%	-2%	15%&15%	-5%	4%	2.2%	2%	-7%
Cc1ccc(NC(=S)NC(NC(=O)C(C)(C)C)C(Cl)(Cl)Cl)c(C)c1 (stereo unspecified)	-6%	-23%	5%	10%	3%	4.2%	-16%	30%

This part in full (from the top)
Structure	LASV entry inh	StopGo reporter	MARV entry inh	Cruzain noTriton	SARS PLP yeast	Cruzain inh Det	NS1 function inh	RE007 growth inh
COc1cccc(-c2noc(C(C)n3nc(C)c([N+](=O)[O-])c3C)n2)c1 (stereo unspecified)	u	13%	u	-8%	2%	-5.9%	-3%	-10%
COc1cc2[nH]c(=O)n(CCCCCC(=O)NCCCN3CCCC3=O)c(=O)c2cc1OC	10%	-2%	15%&15%	-5%	4%	2.2%	2%	-7%
Cc1ccc(NC(=S)NC(NC(=O)C(C)(C)C)C(Cl)(Cl)Cl)c(C)c1 (stereo unspecified)	-6%	-23%	5%	10%	3%	4.2%	-16%	30%
O=C1c2ccsc2SCCN1Cc1ccccc1	x	1%	x	x	-1%	x	-1%	-14%
COC(=O)c1c(NC(=O)CN2CCC(C)CC2)c2c(C)cccc2n1C	x	x	x	-7%	7%	-0.2%	u	x
Cc1cc(C)c2nc(N3CCCC(C(=O)NC4CCCC4)C3)sc2c1 (stereo unspecified)	5%[46.1 µM]	-11%	-23%[46.1 µM]	x	-2%	x	-3%	-7%
O=C(c1ccc(=O)[nH]c1)N1CCCc2ccccc21	x	-21%	x	x	2%	x	1%	-9%
Nc1cccc(S(=O)(=O)NC2=NCCC2)c1	-17%	9%	-7%[46.1 µM]	-1%	2%	3.5%	2%	9%
O=C(O)c1ccc(COc2ccccc2C=C2C(=O)c3ccccc3C2=O)cc1	-4%	-10%	-6%	-2%	-56%	-2.7%	1%	-8%
Cc1ccc(Cl)cc1Nc1nn2c(=O)c3ccc(C(=O)Nc4ccc(F)cc4)cc3nc2s1	17%[46.1 µM]	-17%	x	4%	x	-1.6%	x	x
COc1cccc(CNS(=O)(=O)c2cnc(N)nc2)c1	3%[46.1 µM]	4%	x	-6%	x	0.5%	x	x
CC1CN(S(=O)(=O)c2ccc3c(c2)NC(=O)CC(=O)N3)c2ccccc2O1 (stereo unspecified)	2%[46.1 µM]	-3%	x	-16%	x	-1.3%	x	x
CCC1CCCCN1C(=O)COC(=O)c1cc(Br)ccc1Cl (stereo unspecified)	15%[46.1 µM]	-29%	1%[46.1 µM]	x	0%	x	-1%	1%
COc1cc(C)c(C(=O)Oc2cc(C)c(C(=O)O)c(O)c2C)c(OC)c1C	x	-14%&-24%	x	u	-2%	-15%	-2%	7%
Cc1ccc(C(=O)CSc2nc(C)cc(SCc3nnc(-c4ccccc4)o3)n2)cc1	1%	-2%	2%&2%	-5%	-2%	0.3%	-40%	3%
COc1ccc2[nH]c(=O)c(C3c4cc(OC)c(OC)cc4CCN3C(=O)c3ccco3)cc2c1 (stereo unspecified)	u	0%	-15%[46.1 µM]	x	1%	x	4%	-10%
CC(C)(C#N)N([O-])C=C[N+](=O)C(C)(C)C#N	29%	9%	6%	-6%	3%	0.2%	-7%	13%
CCCCN(CC)C(=O)c1nn(C)c2c1CSc1ccccc1-2	7%[46.1 µM]	1%	3%[46.1 µM]	-20%	x	5.1%	x	x
O=C(NC(=S)Nc1ccc(Cl)cn1)c1cc([N+](=O)[O-])ccc1N1CCOCC1	x	-3%	x	x	-3%	x	3%	23%
CC(=O)Nc1ccc(NC(=O)CSc2nnc(NC(=O)c3ccco3)s2)cc1	u	3%	19%	x	-1%	x	7%	-1%
COc1cccc(CN2CCN(Cc3nc4c(s3)CCCC4)CC2CCO)c1 (stereo unspecified)	x	-14%	x	x	4%	x	4%	0%
Cc1oc2ccc(O)c(CN3CCN(C)CC3)c2c1C(=O)Nc1ccc(C(C)C)cc1	30%[46.1 µM]	-22%	1%[46.1 µM]	-1%	x	-1.1%	x	x
COc1cccc2sc(Nc3nc(-c4ccncc4)cs3)nc12	-18%	2%	u	x	-5%	x	x	-9%
COc1ccc(C(=O)CCC(=O)Nc2ccc(OC)c(Cl)c2)cc1	13%[46.1 µM]	0%	x	-4%	x	-5.2%	x	x
CCC(=O)N1CCc2cc(S(=O)(=O)NC(C(=O)Nc3ccc(C(C)=O)cc3)C(C)C)ccc21 (stereo unspecified)	17%[46.1 µM]	61%[activator]	1%[46.1 µM]	-6%	x	-3.1%	x	x
COc1ccc(P(=O)(COc2ccc([N+](=O)[O-])cc2)c2ccc(OC)cc2)cc1	u	12%	u	-6%	-4%	-6.0%	10%	-3%
CCC(C)(C)NC(=O)Cc1ccc(C)cc1	17%	5%	16%	-5%	16%	3.7%	-1%	-10%
Cc1sc2nc3ccc(N4CCCC4)nn3c(=O)c2c1C	x	-29%	x	x	0%	x	-11%	-1%
Cc1cc(C)cc(OCCCn2ccnc2)c1	x	-21%	x	x	-5%	x	1%	6%
O=C(NC1CCCCC1)c1cc(C2CC2)on1	x	62%[activator]	x	x	2%	x	0%	-7%
O=C(COc1ccc([N+](=O)[O-])cc1)Nc1cccc2nsnc12	u	-3%	-8%	x	1%	x	25%	-15%
Cc1ccc(NC(=O)CNC(=O)c2ccco2)cc1	16%	0%	14%	x	2%	x	3%	-2%
CCOC(=O)N1CCN(c2c(NCc3ccccc3Cl)c(=O)c2=O)CC1	x	1%	3%	x	1%	x	2%	0%
CCN(CC(=O)NC1CCS(=O)(=O)C1)c1ccc(S(C)(=O)=O)cc1[N+](=O)[O-] (stereo unspecified)	6%	-3%	17%	5%	4%	2.3%	2%	2%
O=C(CCCSc1nc2ccccc2[nH]1)N1CCN(c2ccc([N+](=O)[O-])cc2)CC1	-1%	18µM*	2%	u	2%	-4.7%	8%	-12%
CCOC(=O)C1=C(N)Oc2cc(O)ccc2C1c1ccccc1 (stereo unspecified)	x	u	x	x	-2%	x	9%	1%
CCOC(=O)c1nn(-c2ccc(F)cc2)c2nc(Nc3ccccc3)cc(=O)n12	u	-23%	-2%	u	19%	-0.9%	u	11%
COc1ccc(C2CC(c3ccc(OC)cc3O)=NN2C(=O)c2ccccc2)cc1 (stereo unspecified)	u	14%	u	x	-2%	x	2%	6%
Cc1cccc(C(=O)NCc2nc3ccccc3n2Cc2ccccc2Cl)c1	-4%[46.1 µM]	-22%	-21%[46.1 µM]	16%	x	-15%	x	x
Nc1ccc([As](=O)(O)O)cc1	-12%	0%	29%&29%&29%&29%&29%	-4%	-2%	4.1%	6%	9%
CC(C)CCNC(=O)C1CC(c2cccc([N+](=O)[O-])c2)=NO1 (stereo unspecified)	x	-10%	x	4%	0%	0.3%	-4%	5%
CCOC(=O)CC(NC(=O)CCc1c(C)nc2nc(C)nn2c1C)c1ccc(OC(C)C)cc1 (stereo unspecified)	-4%[46.1 µM]	-16%	6%[46.1 µM]	x	-1%	x	x	-3%
CC(C)c1ccc(-n2c(O)c(/C=N/N3CCOCC3)c(=O)[nH]c2=S)cc1	-39%	-10%	9%[46.1 µM]	x	1%	x	0%	-1%
O=C(NCc1ccc(F)cc1)c1ccc(NC(=O)C2CCCO2)cc1 (stereo unspecified)	-2%[46.1 µM]	-9%	4%[46.1 µM]	x	1%	x	6%	20%
Cc1c(Br)c(O)c(Br)c(O)c1/C=N/n1c(-c2ccccc2)n[nH]c1=S	5%	-5%	-1%[46.1 µM]	x	-3%	x	8%	7%
CCOc1ccc(NC(=O)CSc2nc3ccsc3c(=O)n2CCC(C)C)cc1	u	-6%	x	4%	x	-0.1%	x	x
COc1ccc(-c2[nH]ncc2CNC(C)c2cn(C)nc2C)c(F)c1 (stereo unspecified)	x	8%	x	x	0%	x	-1%	-11%
O=C(Cc1ccccc1)N1CCCC(c2nc(-c3ccc(S(=O)(=O)N4CCCC4)cc3)no2)C1 (stereo unspecified)	u	x	-23%	u	-5%	6.6%	3%	-17%
COC(CN(C)C(=O)c1ccc2c(c1)NC(=O)c1ccccc1S2)OC	x	-6%	x	x	0%	x	3%	-6%
COC(=O)C1C=CC(OC2OC(COC(C)=O)C(OC(C)=O)C(OC(C)=O)C2OC(C)=O)n2c(=O)n(-c3ccccc3)c(=O)n21 (stereo unspecified)	u	25µM*	u	x	x	x	x	34%
CCOc1ccc(NC(=O)c2ccccc2NS(C)(=O)=O)cc1	8%	34%[activator]	28%	8%	-2%	0.5%	-8%	-2%
CC1=CCC2C(=O)N(C(C)c3ccccc3)C(=O)C2C1 (stereo unspecified)	16%[14.3 µM]	9%	u	u	10%	3.4%	-2%	-5%
O=C(CN1C2CCCC1CC(NC(=O)c1ccccc1)C2)Nc1ccccc1C(F)(F)F (stereo unspecified)	5%[46.1 µM]	u	u	x	1%	x	1%	-2%
Cn1nnnc1SCCNCc1ccccc1OCc1ccccc1	-10%	-23%	3%	-16%	7%	-2.3%	0%	-15%
CCc1ccc(NC(=O)CNS(=O)(=O)c2c(C)noc2C)cc1	15%	-15%	u	6%	12%	2.0%	-7%	4%
O=C(Cc1cccs1)N/N=C/C=C/c1ccccc1[N+](=O)[O-]	u	60%[activator]	-25%[14.2 µM]	x	0%	x	-3%	-6%

Rows are unselected (roughly 4.7% active in at least one column).
